GLA inh pH 4.5: blocks human alpha-galactosidase A at pH 4.5; purified enzyme, 4-MU-alpha-Gal fluorescence, pH 4.5; 230,000 tested, under 10 active; P06280; AID 1467; activity change, negative = inhibition, % at 105 µM; inconclusive = small, poorly fitted or top-dose-only inhibition, or a rising curve; inactive = flat fitted curve, though single readings scatter; no compound was filed as active;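 further: 0% = full activity with enzyme and -100% = basal without enzyme; dose as in the result columns while the protocol names 77 µM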
Rango dissoc inh: inhibitors of RanGTP-induced Rango-importin beta complex dissociation; 340,000 tested, 0.071% active; Biochemical FRET Rango-importin beta, RanGTP-induced dissociation; Potency, µM (titrated, usually from 46.1 µM), for the others: at the top dose activity change, negative = inhibition; AID 540253; O95149+P62826; active means falling FRET ratio curve, often poorly fitted, with flat reads before Ran was added; inconclusive means other falling curves, or compound fluorescence or quenching; inactive means flat or rising ratio curve;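 further: potency means the concentration at half of the fitted maximal effect; % of control where 0% means no effect; nearly all actives have a fitted effect of over 45% in size; -100% = wells without RanGTP and RCC1; the record marks most hits as doubtful in a second field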
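Rango FRET biosensor (snurportin-1 IBB flanked by N-terminal EYFP and C-terminal CFP10) at 0.1 uM, with 0.25 uM importin beta in PBS, 1mM DTT, 0.02% Tween-20, 0.1% BSA. 0.6 uM Ran, 2mM GTP and 0.2 uM RCC1 were then added for 45 min at room temperature. Inhibition read as loss of FRET rise.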
Rango-impB inh: inhibitors of Rango-importin beta complex formation | Q14974 | Rango CFP/YFP FRET sensor + importin beta, 45 min | Potency, µM (highest dose often 92.2 µM), for inactives: at the highest dose inhibition of complex formation | 340,000 tested, 0.031% active | AID 540263; active = rising FRET ratio curve, often small or poorly fitted; inconclusive = mostly compound fluorescence or quenching in the first reads; inactive = flat curves in all reads;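 further: potency means the concentration at half of the fitted maximal effect; 0% = DMSO wells and 100% = buffer wells lacking importin beta; nearly all actives have a fitted effect of over 15% in size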
Target sequence (Q14974 whole entry, looked up): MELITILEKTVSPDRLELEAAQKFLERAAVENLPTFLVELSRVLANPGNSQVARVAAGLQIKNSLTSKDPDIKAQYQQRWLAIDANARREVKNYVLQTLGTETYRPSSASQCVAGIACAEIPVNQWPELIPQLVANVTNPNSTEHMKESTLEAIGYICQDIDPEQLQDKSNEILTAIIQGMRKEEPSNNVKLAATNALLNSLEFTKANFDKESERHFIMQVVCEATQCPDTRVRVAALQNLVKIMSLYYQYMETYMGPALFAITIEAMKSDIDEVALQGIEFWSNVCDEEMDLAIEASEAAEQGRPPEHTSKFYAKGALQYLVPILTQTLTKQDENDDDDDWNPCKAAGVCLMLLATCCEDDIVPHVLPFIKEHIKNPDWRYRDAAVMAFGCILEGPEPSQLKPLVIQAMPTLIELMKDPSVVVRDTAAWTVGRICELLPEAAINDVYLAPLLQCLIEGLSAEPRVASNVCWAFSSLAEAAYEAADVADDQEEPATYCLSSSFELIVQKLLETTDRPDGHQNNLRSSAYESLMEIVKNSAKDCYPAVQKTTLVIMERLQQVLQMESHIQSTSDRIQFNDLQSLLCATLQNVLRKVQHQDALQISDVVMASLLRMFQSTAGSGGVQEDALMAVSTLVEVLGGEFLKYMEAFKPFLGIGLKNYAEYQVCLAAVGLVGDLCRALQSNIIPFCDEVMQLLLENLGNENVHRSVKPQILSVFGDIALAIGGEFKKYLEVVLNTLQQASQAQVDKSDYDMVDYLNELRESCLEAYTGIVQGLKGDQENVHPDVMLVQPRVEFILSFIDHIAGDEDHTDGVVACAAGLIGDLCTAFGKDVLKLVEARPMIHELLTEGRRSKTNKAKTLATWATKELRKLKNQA
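FRET biosensor (snurportin 1 IBB flanked by EYFP and cerulean), 50 nM, with compound 5 min, then 0.125 microM importin beta in PBS, 1 mM DTT, 0.02% Tween-20, 0.1% BSA. CFP/YFP ratio read after 45 min at room temperature; pre-read flags interference.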
miR-21 reporter: raises the signal of a miR-21 reporter; HeLa miR-21 FLuc reporter, luciferase, 48 h; Potency, µM (doses to about 38.3 µM), without a hit: at the highest dose reporter change, positive = more light; 340,000 tested, under 10 active; AID 2288; active = well fitted rising curve with a large enough effect; inconclusive = small, poorly fitted or top-dose-only effect; inactive = no such curve, though single readings can be large or run the other way;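 further: % of control where 0% means no effect; miR-21 action dims this reporter so a rising signal means less miR-21 action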
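Luminescence from a firefly luciferase reporter carrying a miR-21 binding site downstream, stably expressed under a CMV promoter in HeLa cells that make miR-21 endogenously, reports miRNA modulation after 48 h compound exposure up to approximately 40uM final.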
Starred values were filed as active, the others as inactive; u = inconclusive; x = no result given; & = joins results of further samples; [ ] = remark or other dose.

GLA inh pH 4.5	Rango dissoc inh	Rango-impB inh	miR-21 reporter	smiles
3.0	21.3%	6.2%	-0.2%	CCS(=O)(=O)C(=C1NCCO1)S(=O)(=O)CC
10.4&-9.0	24.0%	4.0%	8.8%	CC#CCN1c2ccccc2[C@]23C[C@@H](C(=O)OC)N(C(=O)c4ccco4)C2=NC(C(=O)OC)=C(C(=O)OC)[C@H]13
x	-7.2%	-1.7%	-0.9%	OC(CN1CCN(C(c2ccccc2)c2ccccc2)CC1)c1ccc(Br)cc1 (stereo unspecified)
5.6	-1.0%	-0.9%	-17.6%	C=CCn1c(=S)[nH]c2scc(-c3ccc(C)o3)c2c1=O
7.4	11.6%	3.2%	1.1%	COc1ccc(NC(=O)c2ccc(NC3CC(=O)N(c4ccc(C)cc4C)C3=O)cc2)cc1 (stereo unspecified)
-3.3	11.6%	-0.9%	-1.2%	COc1ccc(S(=O)(=O)N2CCN(C)CC2)cc1C
-3.9	2.5%	-5.2%	0.8%	C=CCOn1c(C)c(C(C)=O)c2c3nonc3ccc21
x	0.7%	-3.1%	1.0%	Cc1ccc(CN(C(=O)COc2ccc(Br)cc2)C2CCS(=O)(=O)C2)o1 (stereo unspecified)
2.0	18.3%	2.2%	-3.5%	O=C(CCC(=O)Nc1ccccc1)N/N=C/c1ccccc1F
4.6	u	u	-39.7%	Cc1cc2nc3c(=O)n(C4CCCCC4)c(=O)[nH]c3nc2cc1N
x	-6.3%	0.7%	x	O=C(C1=COCCO1)N(Cc1nnc(-c2ccc(Cl)cc2)o1)C1CC1
-0.4	-6.8%	0.0%	-8.1%	Cc1ccc(-c2cn(S(=O)(=O)c3cccc4nsnc34)nc2N)cc1
1.5	-0.6%	6.7%	8.6%	COc1ccc(CNc2cc(C)nc3ncnn23)c(OC)c1
1.6	4.6%	-3.3%	-10.0%	CCOc1ccc(S(=O)(=O)NNC(=O)c2cc3ccccc3o2)cc1
-3.6	x	x	-2.7%	CCc1nc(SCC(=O)Nc2sc(C)c(C)c2C(=O)OC)c2ccccc2n1
-4.3	0.2%	0.2%	-5.6%	Clc1ccc(-c2nnc(-c3ccccc3)c(-c3ccccc3)n2)cc1
-5.1	0.2%	-2.4%	-18.8%	Cc1c(Cl)cccc1NC(=O)CNCc1ccccc1F
-3.3	2.1%	0.9%	-1.8%	CC(C)CNC(=O)[C@H](Cc1ccccc1)NC(=O)c1ccco1
0.3	1.4%	0.8%	-3.5%	CC(C)C(=O)N1CCC(CN=CC2=C(O)CC(C)(C)CC2=O)CC1
-0.2	8.0%	-0.6%	-2.4%	CCOc1ccc(NC(=O)CC2C(=O)N(CC)C(=S)N2CCNC(C)=O)cc1 (stereo unspecified)
-2.2	0.3%	-4.2%	-3.6%	CCc1ccc(-c2csc3ncn(Cc4ccc(C(=O)O)cc4)c(=O)c23)cc1
x	13.8%	-1.5%	x	COc1ccc(CNC(=O)Cn2cnc3c(SC)nc(N)nc32)cc1
x	-1.5%	-6.0%	4.0%	COc1cc(NS(=O)(=O)c2ccc3c(c2)C(C)(C)C(=O)N3C)cc(OC)c1
x	-5.6%	-1.1%	0.5%	O=S(=O)(NC(=NCc1ccccc1)c1ccccc1)c1ccccc1
21.7	-18.4%	-3.9%	5.3%	CCCN(CCC)c1ccc(/C=N/NC(=O)CN2CCOCC2)cc1
-0.3	14.5%	0.0%	-4.2%	Cc1cc2ncn(S(=O)(=O)N(C)C)c2cc1C
-7.0	0.9%	-4.3%	-3.1%	CC1C(=O)OC(c2ccc(Br)cc2)C(C)(C)C1=O (stereo unspecified)
5.2	0.5%	-2.8%	1.7%	COc1ccc(/C=N/S(=O)(=O)c2cccs2)cc1
x	6.8%	-0.6%	0.6%	COC(=O)CNC(=O)C1CCC(CNS(=O)(=O)c2cccc3nsnc23)CC1 (stereo unspecified)
x	-10.6%	5.9%	-0.7%	CC(C)(C)NC(=O)CCN(/N=C/c1ccccc1F)C1=NS(=O)(=O)c2ccccc21
-10.4	-12.0%	0.6%	-2.8%	COc1ccc(S(=O)(=O)N2CCN(C(=O)COc3ccccc3)CC2)cc1
1.9	x	x	-5.6%	Cc1ccc2c(c1)N/C(=C(\C=C(/Cl)[N+](=O)[O-])[N+](=O)[O-])N2
-5.3	1.8%	1.7%	0.3%	COc1ccc(N2C(=O)C3ON(C4SC(=S)N(C)C4(C)C)C(c4ccc([N+](=O)[O-])cc4)C3C2=O)cc1 (stereo unspecified)
x	-7.7%	-3.4%	-0.1%	Cc1cccc(NC(=O)C2CCN(S(=O)(=O)c3ccc4c(c3)NC(=O)CO4)CC2)c1C
1.5	-0.7%	-4.5%	-40.7%	CC1CCN(C(=O)c2ccc3c(c2)OCCO3)CC1
-20.5	-6.2%	2.4%	-1.3%	COc1cccc(CNC(=O)CCNC(=O)Cn2ccc3ccccc3c2=O)c1
1.3	0.8%	6.7%	1.8%	CC(=O)O[C@@H]1[C@H]2[C@@H](C[C@@H](C)[C@@H]3C=CC(=O)[C@@]13C)OC(=O)[C@@H]2C
-1.9	-13.7%	-0.1%	-44.3%	Cc1cc(/C=C(/C#N)c2cccc(F)c2)c(C)n1-c1cccnc1
x	12.0%	-0.2%	x	CN(CC(=O)Nc1ccc(F)c(F)c1F)C(=O)C1COc2ccccc2O1 (stereo unspecified)
-1.9	0.5%	0.2%	-5.3%	NC(=O)CSc1nnc(-c2cccnc2)n1Cc1ccccc1
2.6	u	u	5.0%	CCn1nc(NC(=O)c2ccncc2)c2cc3cccc(C)c3nc21
4.2	-16.8%	0.6%	-2.9%	O=C(Cn1cc(C(F)(F)F)cc(Cl)c1=O)NCCc1ccc(Cl)cc1Cl
-6.9	17.4%	6.9%	-4.1%	COc1cc2c(cc1NC(=O)COC(=O)/C=C/c1ccccc1)oc1ccccc12
2.5	12.6%	0.0%	-6.1%	Cc1cc(NC(=O)CSc2nc3c(c(=O)n2-c2ccccc2)SC(C)C3)no1 (stereo unspecified)
x	-0.6%	-2.2%	-3.3%	CCOc1ccc(NC(=S)NC23CC4CC(CC(C4)C2)C3)cc1
x	2.7%	-1.6%	0.5%	CCOc1ccc(CNC(=O)CCC(=O)n2ncc3ccc(Cl)cc32)cc1
x	2.1%	1.3%	0.5%	CCS(=O)(=O)N1CCC(C(=O)Oc2ccc(C)c(C)c2)CC1
x	-8.6%	1.4%	x	O=C(CC1SC(N2CCCCC2)=NC1=O)Nc1cccc(C(=O)Nc2ncccc2O)c1 (stereo unspecified)
-15.9	3.0%	-4.3%	0.9%	Cc1ccc(C)c(N(C(=O)Cn2nnc(-c3cccs3)n2)C(C(=O)NC2CCCC2)c2ccncc2)c1 (stereo unspecified)
6.9	0.7%	-3.3%	-0.2%	O=C(CSc1n[nH]c(-c2ccncc2)n1)Nc1ccccn1
x	u	-3.5%	x	O=C(c1ccc(NS(=O)(=O)c2ccc3[nH]c(=O)[nH]c3c2)cc1)N1CCN(c2ccccc2)CC1
2.2	-2.0%	-0.6%	-32.6%	Cc1ccc(S(=O)(=O)N2CCCN(S(=O)(=O)c3ccc4ccccc4c3)CC2)cc1
2.0	2.2%	0.1%	2.9%	CN(C)S(=O)(=O)c1cccc(NC(=S)NCc2ccco2)c1
5.2	-10.4%	1.3%	-29.7%	C=CCN1N=C(/C=C/c2ccccc2)CCC1=O
6.7	-14.4%	2.4%	-2.0%	CC(=O)c1ccc(NC(=O)N2CCN(c3ccc(C)cc3)C(C)C2)cc1 (stereo unspecified)
8.3[21.1 µM]	7.9%	u	-3.8%	CC1=C(C(=O)Nc2ccccc2)C(c2cc(CN3CCOCC3)cs2)C2=C(CCCC2=O)N1 (stereo unspecified)
x	19.6%	-0.6%	-31.4%	Cc1ccc(-c2nc3ccccc3[nH]2)cn1
x	-4.0%	-0.5%	3.3%	CCOc1ccc(CNC(=O)CS(=O)(=O)Cc2nc(-c3ccc(OC)cc3)oc2C)cc1
x	-25.9%	-0.8%	x	COc1ccccc1N(CCC#N)C(=S)Nc1ccc(S(=O)(=O)N2CCOCC2)cc1
x	-3.5%	-1.8%	6.5%	COc1cc(CCC(=O)OCC(=O)Nc2c(F)cccc2F)cc(OC)c1OC

Ordered by molar mass (low to high): 3 of the compounds above
GLA inh pH 4.5	Rango dissoc inh	Rango-impB inh	miR-21 reporter	smiles
5.2	-10.4%	1.3%	-29.7%	C=CCN1N=C(/C=C/c2ccccc2)CCC1=O
x	13.8%	-1.5%	x	COc1ccc(CNC(=O)Cn2cnc3c(SC)nc(N)nc32)cc1
2.2	-2.0%	-0.6%	-32.6%	Cc1ccc(S(=O)(=O)N2CCCN(S(=O)(=O)c3ccc4ccccc4c3)CC2)cc1

The list goes on.
GLA inh pH 4.5	Rango dissoc inh	Rango-impB inh	miR-21 reporter	smiles
x	7.0%	2.8%	x	O=C(OC1CO[C@H]2O[C@@H]1[C@H](OC(=O)c1ccccc1)[C@H]2OC(=O)c1ccccc1)c1ccccc1 (stereo partly specified)
5.1	u	u	0.5%	Cc1c(Cc2ccccc2)c(=O)oc2cc(O)cc(O)c12
-2.9	29.0%	0.6%	-0.2%	O=C(/C=C1\SC(=O)NC1=O)Nc1ccc(C(=O)O)cc1
-12.8	-12.3%	2.7%	-2.7%	Cc1cc(-c2ccco2)n(CC(=O)O)n1
-4.5	-1.2%	5.6%	8.3%	Cc1ccc(C(=O)Nc2ccc(O)cc2C(=O)O)cc1C
-12.2	3.7%	6.0%	-2.9%	Cn1c(CN2CCOCC2)nc2cc(NC(=O)c3ccc(F)cc3)ccc21
x	-21.2%	u	x	NC(=O)C1CCN(c2nc(-c3cccnc3)cs2)CC1
x	-8.4%	1.8%	-9.3%	Cc1ccc(NC(=O)CSc2nc3ncc(Cl)cc3[nH]2)c(C)c1
-4.9	1.0%	1.2%	-0.7%	COc1ccc([N+](=O)[O-])cc1NC(=O)C1CCCCC1C(=O)O (stereo unspecified)
19.4	5.6%	0.3%	-2.9%	Cn1c(=O)[nH]c(=O)c2c1nc(N1CCCCCC1)n2Cc1cccc2ccccc12
-4.4	x	x	-1.8%	CCOC(=O)N1CCN(c2nc(N(c3ccccc3)c3ccccc3)nc(-n3ccnc3)n2)CC1
x	-2.8%	-5.1%	-0.9%	Cc1cc(CN(C)C(=O)c2ccc(OC3CCN(S(=O)(=O)N(C)C)CC3)cc2)n[nH]1
x	-14.7%	-0.8%	-23.4%	O=C(Nc1ccc(Oc2ccsc2C(=O)O)cc1)c1ccccc1F
-4.8	-2.8%	5.2%	-0.6%	Cc1cnc(C)c(N2CCN(Cc3cn(C)nc3-c3cccc(Cl)c3)CC2)n1
-16.7	12.4%	0.0%	-4.1%	CCOC(=O)C1=C(C)N(c2ccccc2)C(=O)/C1=C\c1ccc(O)c(OC)c1
0.8	-12.9%	u	-0.4%	CSCCCNC(=S)Nc1ccc(N2CCOCC2)cc1N1CCOCC1
x	8.7%	3.3%	0.0%	CS(=O)(=O)N(CC(=O)O)Cc1cccc(CN(CC(=O)O)S(C)(=O)=O)c1
x	-10.3%	u	-5.6%	O=C(Nc1ccccc1N1CCOCC1)c1cccc(Oc2ccccc2)c1
-7.4	1.9%	3.5%	-45.3%	Cc1ccc(/C=C/C(=O)N2CCCN(C(=O)/C=C/c3ccc(C)cc3)CC2)cc1
-4.1	-5.2%	-3.3%	-26.9%	CCN(CC)CCn1c(NC(=O)c2ccc(Cl)cc2)nc2ccccc21
-9.7	11.5%	-1.1%	-33.1%	Cc1ccc(Nc2nc3c(c(=O)[nH]2)CCCC3)cc1
-3.8	-8.6%	-3.8%	-3.5%	O=C(c1ccc(Cl)cc1)c1ccccc1C(=O)N1CCOCC1
x	-16.9%	-3.6%	x	COc1cccc(N2[C@@H](CC(=O)O)c3cc(C(F)(F)F)ccc3S2(=O)=O)c1
x	-0.3%	-2.7%	x	COCOc1ccc(-c2cc(=O)c3c(O)cc(OCOC)cc3o2)cc1
-2.5	19.0%	0.5%	-28.7%	CCc1ccc(OCC(=O)O/N=C(\N)c2cccnc2)cc1
0.6	-13.9%	3.7%	-30.0%	O=C1NC(c2ccncc2)Nc2sc3c(c21)CCCC3 (stereo unspecified)

An excerpt (hit frequency here may not be typical).
